TAR Tat displ = TAR RNA-Tat peptide displacers, HIV-1, primary screen, biochemical, FRET, FAM/TAMRA-labeled Tat | z-score (test concentration not listed) | HIV-1 TAR RNA, Tat peptide displacement FRET; stronger effect = higher value | hit rate 0.6% among 100,000;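 note: score is relative to mean and SD of negative controls; some compounds called inactive have numbers as strong as hits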
CDC25B CDK2 inh = primary biochemical HTRF screen for blockers of M-phase inducer phosphatase 2 binding to CDK2/cyclin A; HTRF CDC25B-CDK2/CyclinA binding, anti-His/anti-Flag; stronger effect = higher value; AID 1259370, 2018; P30305+P24941; hit rate 0.72% among 94,000; z-score (no concentration beside the values);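 note: score is relative to mean and SD of negative controls; strong numbers were not always called active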
* marks the source's active call; other numbers are inactive results; · = no result given.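 Rule for the calls: active = z-score from 3 up in half or more of its runs; inactive = the rest.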

SMILES,CDC25B CDK2 inh,TAR Tat displ
CCCCOCC1CC(CC#CCN2CCCCC2)C(=O)O1 (configuration not stated),-0.02,·
O=C(Cn1ncn2nc(-c3cccs3)cc2c1=O)NCCCN1CCCC1,0.96,-0.4
O=C1Nc2cc(C(=O)N3CCC(N4CCCCC4)CC3)ccc2N2CCCC12 (configuration not stated),·,1.1
CC(=O)C1=C(O)C(=O)N(c2nc3ccccc3s2)C1c1ccc(C)cc1 (configuration not stated),-1.7,·
N=C1SCC(=O)N1c1ccc(Cl)c(Cl)c1,-0.97,·
O=C(CSc1ncnc2c1sc1cccc(F)c12)NC1CC1,·,-0.1
Cc1ccc(-c2c(NC3CCCCC3)c(=O)c2=O)cc1C,·,1.7
COc1cc(CN2CCN(C3C4CC5CC(C4)CC3C5)CC2)cc(OC)c1O (configuration not stated),-3.4,·
O=C(CSc1nnc2ccccn12)Nc1ccccc1F,0.16,-0.52
O=C(Cn1c(=O)oc2cc(S(=O)(=O)N3CCOCC3)ccc21)Nc1ccc(Cl)cc1,-1.3,-1.9
CC(C)c1ccc(N2C(=O)/C(=C\c3ccc(-c4ccc([N+](=O)[O-])cc4)o3)SC2=S)cc1,-1.9,·
N#Cc1cn(-c2ccc(Cl)cc2)nc1C(=O)c1cccs1,-2.4,·
CN(C)c1ccc(C2N3CC4(C)CN2CC(C)(C3)C4=O)cc1 (configuration not stated),-3.5,·
COc1ccc(NS(=O)(=O)c2ccc(-c3cc(C(F)(F)F)on3)s2)cc1,·,0.33
Cc1cc(C)c2cc(C(=O)NCCSCc3ccco3)[nH]c2c1,-1.1,·
O=C(CCS(=O)(=O)c1ccc(F)cc1)Nc1nc(-c2ccccn2)cs1,·,0.65
O=C(Nc1cccc(S(=O)(=O)N2CCOCC2)c1)c1cc2sc3ccccc3c2s1,-0.57,1.8
Cc1ccc(-c2cc3ncc4c(n3n2)-c2cc(F)ccc2OC4)cc1,0.54,0.59
OCc1cnc(SCc2ccccc2)n1Cc1ccccc1,·,0.82
CCOC(=O)C1=C(C)NC(=O)NC1c1cc(Br)ccc1OC (configuration not stated),-0.66,·
O=C(c1cccs1)N(Cc1ccccc1F)C1CCS(=O)(=O)C1 (configuration not stated),-0.56,0.55
CC(C)(C)Nc1nc2nonc2nc1NC(C)(C)C,-1.3,·
COc1cc(C2c3c(oc4cc(C)cc(C)c4c3=O)C(=O)N2Cc2ccco2)ccc1O (configuration not stated),-1.2,0.81
O=c1c2c(nc3nc(Cc4ccc(Cl)cc4)[nH]n13)CCC2,-2.3,-1.8
COc1ccc(OC)c(NC(=O)NCc2c(C)nn(C)c2C)c1,·,-0.92
CCn1c(=O)n(CC)c2cc(N3CCCC3)c(NC(=O)CC(=O)OC)cc21,-1.9,0.1
COc1cccc(-c2nc3cc(N)ccc3o2)c1,0.67,0.67
O=C(Nc1nnc(CCS(=O)(=O)c2ccc3ccccc3c2)s1)c1ccc(Cl)cc1,-2.6,·
CN(CCNC(=O)C1Cc2ccccc2N1C(=O)c1ccccc1)Cc1ccccc1 (configuration not stated),·,1.4
CCCCSc1nc2n(n1)C(c1ccc(OC)cc1)C1=C(CCCC1=O)N2 (configuration not stated),0.05,1.8

Brought forward from above: six entries, then new ones.
SMILES,CDC25B CDK2 inh,TAR Tat displ
COc1ccc(OC)c(NC(=O)NCc2c(C)nn(C)c2C)c1,·,-0.92
CCn1c(=O)n(CC)c2cc(N3CCCC3)c(NC(=O)CC(=O)OC)cc21,-1.9,0.1
COc1cccc(-c2nc3cc(N)ccc3o2)c1,0.67,0.67
O=C(Nc1nnc(CCS(=O)(=O)c2ccc3ccccc3c2)s1)c1ccc(Cl)cc1,-2.6,·
CN(CCNC(=O)C1Cc2ccccc2N1C(=O)c1ccccc1)Cc1ccccc1 (configuration not stated),·,1.4
CCCCSc1nc2n(n1)C(c1ccc(OC)cc1)C1=C(CCCC1=O)N2 (configuration not stated),0.05,1.8
CCCCC1(C)Cc2ccccc2C(=O)N1 (configuration not stated),-0.54,1.8
O=C(Nc1ccc2c(c1)OCCO2)c1cc2c(s1)-c1ccccc1SC2,-0.22,0.09
Cc1cc2c3c([nH]c2cc1S(=O)(=O)N1CCN(c2ccc(Cl)cc2)CC1)CC(C)(C)CC3=O,·,2.4
CSc1nc(N)c(C#N)n1Cc1ccco1,-1.9,·
Nc1ccc(-c2nc3ccccc3[nH]2)cc1,-0.63,3.3
Cc1ccc(C2NC(=O)NC(O)(C(F)(F)F)C2C(=O)c2ccc(Br)cc2)cc1 (configuration not stated),1.5,·
COc1cc(C2C3=C(CCCC3=O)Nc3nc(SCc4ccccc4Cl)[nH]c(=O)c32)ccc1O (configuration not stated),2,-0.11
Cn1c(=O)c2c(nc(Sc3nc4ccccc4n3Cc3ccccc3)n2C)n(C)c1=O,1.5,1.7
COc1ccc(S(=O)(=O)n2nc(C)c(S(=O)(=O)N3CCC(C)CC3)c2C)cc1,·,1.2
O=C1C=CC(=O)N1c1ccc2scnc2c1,-2.7,·
O=C(c1cc(C2CC2)[nH]n1)N1CCN(c2ccccn2)CC1,·,0.85
Cc1cc(NC(=O)CSc2nnc(Cn3c(=O)sc4ccccc43)n2-c2ccccc2)no1,-1.4,·
COc1ccc(C2C(C#N)=C(N)Oc3n[nH]c(-c4ccc5c(c4)OCO5)c32)c(OC)c1 (configuration not stated),-1.8,2
CCCn1c2ccccc2c2nc3ccccc3nc21,-1.2,0.84
CC(C)CC1N=C2c3ccccc3N=C(SC(C)C(=O)Nc3ccc4c(c3)OCCO4)N2C1=O (configuration not stated),·,1
O=C1CCCN(c2cccc(F)c2)N1,-1.2,·
O=C1CC(c2cccs2)Cc2c1cnc1[nH]n(-c3ccccc3)c(=O)c21 (configuration not stated),-3,-1.7
Cc1ccc(C)c(NS(=O)(=O)c2ccc3c(c2)NC(=O)CCS3)c1,·,1.5
O=C(CSc1ccc(-c2ccncc2)nn1)Nc1ccc(Br)cc1,·,1.1
OC(c1ccccc1)c1nc2ccccc2n1Cc1ccccc1 (configuration not stated),-1.4,-0.71
CC(C)COC(=O)c1cn(C2CCCCC2)c2ccccc2c1=O,-0.5,·
Cc1[nH]nc(-c2ccc(S(=O)(=O)Nc3ccc(C(C)C)cc3)s2)c1C,·,0.3
COC(=O)c1ccccc1C(=O)c1cc(C)c(O)c(C)c1,-1.4,·
C=CCN(C(=O)c1noc2c1CCc1sccc1-2)c1ccccc1,·,-0.38
CS(=O)(=O)OCCCCOS(C)(=O)=O,·,1.4
C=CCc1ccccc1OCc1nc2ccccc2n1CC=C,0.99,0.89
NC1=NC(=O)C(CC(=O)Nc2cccc3ccccc23)S1 (configuration not stated),-0.82,·
CCOC(=O)CNC(=O)N1CCN(c2nc3cc(F)ccc3n3cccc23)CC1,·,0.46
Cc1cc(C)c2c(C)c(C(=O)Nc3nc4c(s3)CC(C)CC4)oc2c1 (configuration not stated),-0.23,0.9
CCC(SC1=Nc2ccccc2C2=NC(C(C)C)C(=O)N12)C(=O)Nc1ccccc1 (configuration not stated),·,1.4
NC(=O)CSc1nc2c(oc3ccccc32)c(=O)n1Cc1ccccc1,-4.1,·
Cc1[nH]c(=S)[nH]c(=O)c1Cc1cccc(C(F)(F)F)c1,0.12,·
O=C1c2cccnc2C(Nc2ccc(CN3CCCC3)cc2)N1Cc1cccs1 (configuration not stated),-1.9,-0.44
COc1ccc(Br)cc1C1CC(=O)NC(C)=C1C(=O)OC(C)C (configuration not stated),0.16,0.84
O=S(=O)(c1ccc2nc(NC3CCN(Cc4ccccc4)CC3)ccc2c1)N1CCCCC1,·,0.95
COC(=O)c1ccc2c(c1)C1C=CCC1[C@@H](c1ccc(C(=O)O)cc1)N2 (some centres not stated),-1.2,7.4*
Cc1cc(NS(=O)(=O)c2ccc3c(c2)NC(=O)C(C)CS3)ccc1Br (configuration not stated),·,0.78
Cc1cc(C)c(-c2n[nH]c3c2C(c2ccc(Cl)cc2)N(CCO)C3=O)c(O)c1 (configuration not stated),-0.96,-0.45
COC(=O)C1=C(C)N(c2ccc(Cl)cc2)C(=O)C1,-0.33,0.21
CCC(=O)N1c2ccc(S(=O)(=O)NCc3ccco3)cc2CC1C (configuration not stated),·,2.3
Cc1nc2sc(C)c(C)n2c(=O)c1S(=O)(=O)Nc1cccc(F)c1,·,-0.13
Fc1ccccc1Nc1nc(-c2ccccc2)no1,·,0.29
CC1=C(c2ccc(C(C)C)cc2)S(=O)(=O)NC1=NCCN1CCOCC1,-1.4,-0.48
CCCN(CCC)S(=O)(=O)c1cc(-c2onc(C)c2C)ccc1C,·,1.6
NC(=O)c1c(-c2ccccc2)nc2n1CCS2(=O)=O,-1.9,-1.1
O=C(NCc1ccco1)NCc1cccn1Cc1ccccc1,·,-1.7
Cc1ccc(C(=O)c2cnc3ccc(F)cc3c2N2CCOCC2)cc1,0.08,-0.89
CC(C)Cc1nn2c(=O)cc(CSc3nnc(-c4ccccc4)n3C)nc2s1,·,0.99
CC1CCc2nn(CC(=O)NCCc3c[nH]c4ccccc34)cc2C1 (configuration not stated),-2.7,1.6
Cn1c(=O)c2c(ncn2CC(O)CO)n(C)c1=O (configuration not stated),1.2,0.48

(more compounds)
SMILES,CDC25B CDK2 inh,TAR Tat displ
CCCNC(=O)CCc1c(C)nc2c(c1C)c(=O)n(C)c(=O)n2C,-2.4,-0.37
Cc1cc(-c2ccc(C)c(S(=O)(=O)NCCN3CCOCC3)c2)on1,·,0.79
CC(C)CCNC(=O)CCC(=O)N1CCCn2nc(-c3cccn3C)cc21,·,1.9
Cc1ccsc1/C=C(\C#N)c1nc(-c2cc3cc(Br)ccc3oc2=O)cs1,-2.7,·
CCOC(=O)C(CCCCCOc1ccc([N+](=O)[O-])cc1)C(=O)OCC,-2.1,·
O=c1[nH]nc2c3cc(F)ccc3n(Cc3ccccc3)cc1-2,-1.1,3.2*
COc1ccc(NC(=O)Cc2coc3ccc4ccccc4c23)c(OC)c1,-2.2,-1.1
O=C(CSc1nnc(-c2ccco2)o1)Nc1nnc(-c2cccs2)s1,-1.5,·
O=S(=O)(NCCc1csc(-c2ccc(F)cc2)n1)c1ccc2c(c1)CCCC2,·,2.5
Cc1ccc(-n2nnc(-c3nc(-c4ccccc4C)no3)c2C)cc1,·,0.94
CCOC(=O)C(NC(=O)c1ccco1)(Nc1ccc(F)c(Cl)c1)C(F)(F)F (configuration not stated),-0.91,·
Cc1nc(N2CCCCC2)cc(N2CCN(S(=O)(=O)c3ccccc3Cl)CC2)n1,-0.93,1.5
N#Cc1c2n(c3c(=O)n(CC(=O)c4ccc(Cl)cc4)cnc13)CCCCC2,-0.12,1.2
CCN(CC)S(=O)(=O)c1ccc2c(c1)N(CC(=O)NC1CCCC1)C(=O)C1CCCCN21 (configuration not stated),·,1.8
O=c1[nH]nc(-c2ccc(F)cc2)c2c1Nc1nnnn1C2c1ccccc1F (configuration not stated),-0.56,0.25
CC(c1ccco1)N(Cc1ccco1)C(=O)Nc1ccccc1 (configuration not stated),·,1.2
CCOCCc1nn2c(=O)cc(COC(=O)c3cccs3)nc2s1,·,-0.39
O=C(Nc1cccc(-c2nc3ccccc3s2)c1)c1ccc2c(c1)OCCO2,-5,·
CN(C)CCCNS(=O)(=O)c1ccc([N+](=O)[O-])cc1[N+](=O)[O-],-1.6,·
Cc1cc(Cl)ccc1NC1c2ncccc2C(=O)N1c1ccccc1 (configuration not stated),·,1.2
CCOC(=O)n1ccn(C)c1=S,·,-1.4
CC(C)NC(=O)CCC(=O)N1CC(C)Oc2ccc(Cl)cc21 (configuration not stated),-1.1,-0.47
Cc1cc(-c2ccc(C)c(S(=O)(=O)NCC3CCN(CCc4cccs4)CC3)c2)on1,·,0.5
CSc1cccc(NC(=O)CSc2ncc(S(=O)(=O)c3cccc(Cl)c3)c(=O)[nH]2)c1,-0.53,0.62
NC(=O)C(=Cc1ccco1)C(N)=O,-0.61,·
CC1CCN(C(=O)C2CCN(c3ncnc4c3nc3n4CCCCC3)CC2)CC1,·,-0.22
COc1ccc(-c2nnc3ccc(SCc4ccccc4)nn23)cc1,-1.6,·
Cc1ccc(OCc2cc(=O)n3c(C)csc3n2)cc1C,-3.4,-0.82
COCCOC(=O)c1cnn2c(C(F)(F)F)cc(-c3ccc(F)cc3)nc12,-2,0.92
COc1cc(NC(=S)N2CCOCC2)c(OC)cc1Cl,-2.5,·

Rewritten with two lines to a compound: three of the compounds above
Order of values – CDC25B CDK2 inh | TAR Tat displ
- COc1ccc(-c2nnc3ccc(SCc4ccccc4)nn23)cc1
→ -1.6 | ·
- COc1cc(NC(=S)N2CCOCC2)c(OC)cc1Cl
→ -2.5 | ·
- COCCOC(=O)c1cnn2c(C(F)(F)F)cc(-c3ccc(F)cc3)nc12
→ -2 | 0.92

Next entries follow.
SMILES,CDC25B CDK2 inh,TAR Tat displ
CSc1ncc(CO)n1Cc1ccc(Cl)cc1,·,1.8
Cc1ccc(NS(=O)(=O)c2ccc(-c3cnc(C)o3)cc2)cc1,·,0.01
CCCNC(=O)NC1C(NC(=O)NCCC)N(C)C(=O)N1C (configuration not stated),-0.4,0.34
O=C(Cn1c(=O)oc2cc(S(=O)(=O)N3CCCCCC3)ccc21)Nc1ccc(F)cc1F,-1.9,·

Screening data from PubChem.
